Screening results as filed in PubChem BioAssay.
NPYLR7 ag = mosquito NPYLR7 agonism | HEK293T NPYLR7/Galpha15, GCaMP6s calcium fluorescence | activation, % at 10 µM | hit rate 0.15% among 270,000 | AID 1259423; in the data active = activation above about 40%;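 note: 0% = vehicle and 100% = reference agonist at the receptor; some compounds past the cut are filed as inactive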
NPYLR7 ag max-min = recorded beside NPYLR7 ag, whose call it bears; activation, %; measured here: Max-Min RFU normalised activation; some inactives read as strong as hits;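 span of the calcium signal over five minutes; 0% = vehicle and 100% = native peptide agonist; compound fluorescence can raise it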
Active calls of the source: *; & = joins results of further samples.

| SMILES | NPYLR7 ag | NPYLR7 ag max-min |
| --- | --- | --- |
| CN(Cc1nc2ccccc2s1)C(=O)CCC1(Cc2ccc(F)cc2)CCC(=O)N1 (stereo not given) | 23 | 4 |
| COc1cn(CC(=O)NCc2ccc(C)cc2)c(CN2CCC(C)CC2)cc1=O | -1 | 0 |
| CCCOC1CCCN(C(=O)COc2ccc(Cl)cc2)C1 (stereo not given) | -3 | 0 |
| CSCCCNC(=O)c1cccc(OC2CCN(C(=O)C3CC3)CC2)c1 | 15 | 12 |
| Cc1ccc(C(=O)C(C)Oc2ccccc2Cl)cc1 (stereo not given) | 9 | 8 |
| O=C(c1cc(-c2cccs2)nn1-c1ccc(F)cc1)N1CCC(Cc2ccccc2)CC1 | -4 | -3 |
| CCOC(=O)C1CCCN(C(=O)c2nn(-c3ccc(C)c(Cl)c3)c(=O)n(Cc3cccc(OC)c3)c2=O)C1 (stereo not given) | 15 | 16 |
| O=C(C1CCCC1)N(Cc1nccn1Cc1ccc(Cl)cc1Cl)CC1CCCO1 (stereo not given) | 7 | 13 |
| c1ncn(-c2ccc(COc3ccc4c(C5CC5)noc4n3)cc2)n1 | 5 | 3 |
| CN(CC1CCN(CCc2ccc(F)cc2)CC1)C(=O)c1ccc2c(c1)OCO2 | 3 | -5 |
| COc1ccc(C)cc1N1CCN(C(=O)c2ccc(Cl)cc2Cl)C(C)C1=O (stereo not given) | -10 | -8 |
| O=C1CC2(Oc3ccccc3O2)C(=O)NN1 | -9 | -11 |
| COc1ccc(C2CC(c3ccc(C)cc3C)=NN2C(=O)CN2CCN(Cc3ccccc3)CC2)cc1 (stereo not given) | 19 | 30 |
| CCCCOc1ccc(C(=O)N2CCC(C(=O)NC3CCCC[C@H]3NC(=O)c3ccccc3C)CC2)cc1 (stereo not given in full) | 1 | 7 |
| CN(Cc1ccc2c(c1)OCO2)Cc1cc2n(n1)CCNC2 | 2 | -1 |
| CCOc1ccc(-c2ccc(=O)n(CCNS(=O)(=O)CC)n2)cc1 | -1 | -1 |
| CC(c1ccccn1)N(C)Cc1ccc(-n2ccnc2)cc1 (stereo not given) | -2 | -8 |
| O=C(NCc1cccnc1)NC1COc2c1ccc(Cl)c2Cl (stereo not given) | -4 | -5 |
| COc1cccc(-c2nc3ccc(C(=O)N(C)CC(O)c4ccccc4)cc3o2)c1 (stereo not given) | 1 | -1 |
| COc1cccc(Cc2nsc(N3CCC(C(=O)NCCc4ccc(Cl)cc4Cl)CC3)n2)c1 | 20 | 16 |
| Cc1ccc(OCC(=O)Nc2nnc(C)s2)c(C)c1 | -5 | -4 |
| CC1CC(C)CN(S(=O)(=O)N2CCCC(NS(C)(=O)=O)C2)C1 (stereo not given) | 1 | -2 |
| O=C(NC1CCc2ccccc21)C1CSCN1C(=O)C1CCC1 (stereo not given) | -24 | -28 |
| CCCCN(C)c1c(C)nc2c(OCCOc3ccccc3)cccn12 | 5 | -3 |
| Cc1ccc(-c2nc(CSc3nc(C)c(C)c(=O)[nH]3)c(C)o2)cc1 | 0 | 0 |

Compound profiles (already shown). Order of values: NPYLR7 ag, NPYLR7 ag max-min
Listed for `CC1CC(C)CN(S(=O)(=O)N2CCCC(NS(C)(=O)=O)C2)C1` (stereo not given) → 1, -2
Listed for `COc1ccc(C)cc1N1CCN(C(=O)c2ccc(Cl)cc2Cl)C(C)C1=O` (stereo not given) → -10, -8
Listed for `Cc1ccc(OCC(=O)Nc2nnc(C)s2)c(C)c1` → -5, -4
Listed for `COc1cccc(Cc2nsc(N3CCC(C(=O)NCCc4ccc(Cl)cc4Cl)CC3)n2)c1` → 20, 16

Other results follow.
| SMILES | NPYLR7 ag | NPYLR7 ag max-min |
| --- | --- | --- |
| CC(C)c1ccc(/C=N\Nc2ncnc3nc[nH]c23)cc1 | -1 | -4 |
| Cc1cccc(CN(CCN2CCOCC2)Cc2ccc(C(O)(c3cccc(F)c3)c3cccc(F)c3)o2)c1 | 4 | 1 |
| CN(C)CCCN1C(=O)C(O)=C(C(=O)c2cccs2)C1c1cccs1 (stereo not given) | 8&-5 | 4&-4 |
| Cc1ccc(-n2nc(-c3ccccc3)cc2NC(=O)CN(CC(C)C)S(=O)(=O)/C=C/c2ccccc2)cc1 | 6 | 4 |
| CC(C)c1cccc(C(C)C)c1NC(=O)Nc1ccc(N2CCc3ccccc3C2)c(C(=O)NCc2cccnc2)c1 | 19 | 26 |
| CC1(C)O[C@@H]2C[C@@](OCc3ccc(C#N)cc3)(C(=O)NCC3CC3)CC(OCc3cccc(Cl)c3)[C@@H]2O1 (stereo not given in full) | 1 | 8 |
| CCOC(=O)c1ccc2c(c1)nc(SCc1ccc(Br)cc1F)n2CCCOC(C)C | 8 | 4 |
| O=C(Nc1ccnn1Cc1cccc2ccccc12)c1cc[nH]c(=O)c1 | -2 | -3 |
| C/C(=C\c1ccco1)CN1CCCC1c1c(C)noc1C (stereo not given) | 6 | 5 |
| Cc1cccc(NC(=O)NC(=O)CN2C(=O)c3ccccc3S2(=O)=O)c1C | 8 | 5 |
| COC(=O)C1CCN(c2nc(-c3ccccc3C(F)(F)F)cs2)CC1 | 2 | -1 |
| O=C(NCCCn1nc(-c2ccco2)ccc1=O)c1ccc(-c2ccccc2)cc1 | -2 | -3 |
| CN(C)c1nc(N)nc(COc2ccccc2F)n1 | 5 | 2 |
| CN1CC2N(C(=O)Cc3cccs3)C3CCC2(CC3)OC1=O (stereo not given) | 7 | 13 |
| COc1ccc(C2CC(=O)n3nc(C45CC6CC(CC(C6)C4)C5)nc3S2)cc1OC (stereo not given) | 1 | 7 |
| CCC(=O)c1ccc(OCC(O)Cn2c(C)nc3ccccc32)cc1 (stereo not given) | 5 | 4 |
| CNc1nc2cnc(Nc3ccc(C#N)cc3)cc2n1-c1cccc(C(F)(F)F)c1 | 9 | -2 |
| COc1cc2c(cc1CNC(=O)c1cn3c(n1)CNCC3)CCC2 | 4 | 1 |
| C=CCNC(=O)Cn1c(CO)c[nH]c1=S | -3 | -4 |
| O=C(NCC1CCCCN1C(=O)C1CC2CCC1O2)c1ccccc1 (stereo not given) | -15 | -18 |
| C=CCn1c(=O)c2c(nc3n2CC(C)=NN3CCOCC)n(C)c1=O | 5 | 1 |
| CN(Cc1ccc(-n2cccn2)cc1)Cc1cnc(N2CCOCC2)s1 | 12 | 7 |
| NC(=O)C1CCN(C(=O)C2CCCc3sc(NC(=O)c4ccc(Cl)cc4)nc32)CC1 (stereo not given) | 30 | 23 |
| O=C(O)c1ccc(N2C(=O)/C(=C/c3ccc(-c4ccc(Br)cc4)o3)C=C2c2ccccc2)cc1 | 2 | 8 |
| CCOCCCNC(=O)c1c(C)c(C(=O)OCC)n(C)c1C | 6 | 8 |
| Cc1ccc(Cc2nc(N3CCN(C(=O)c4ccccc4Cl)CC3)c3c(-c4cccnc4)noc3n2)cc1 | 0 | -5 |
| CCOCCOc1nc(-c2ccc(C)cc2)n(-c2ccc(NCC(O)COCC(C)C)cc2)n1 (stereo not given) | -2 | 3 |
| COCCn1c(C(=O)NCCc2ccccc2)cc2c(=O)n(C)c(=O)n(C)c21 | -1 | -1 |
| CC(C)Oc1cc(-c2ccc3c(c2)OCO3)nc(N)n1 | -2 | -2 |
| CCc1nc2n(n1)C(=O)C(C(c1ccc(OC)cc1)N1CCC(C)CC1)S2 (stereo not given) | -2 | 37 |
| O=C(c1ccc(CSc2nc(-c3ccccc3)cc(N3CCN(c4ccccc4F)CC3)n2)cc1)N1CCOCC1 | 11 | 14 |
| Cc1cc(C)c2[nH]c(O)c(N=NC(=O)c3ccccc3O)c2c1 | -3 | -10 |
| CC(C)c1cc(C(=O)N(CC2CCN(Cc3ccccc3F)CC2)CC2CCCO2)on1 (stereo not given) | 11 | 5 |
| CC1(NC(=S)Nc2nccs2)CCS(=O)(=O)C1 (stereo not given) | -7 | -13 |
| O=C(CC1C(=O)NCCN1CC1CCCCC1)NCCc1cn2cccnc2n1 (stereo not given) | 15 | 4 |
| Cc1cnc(N(C)CC2CC(=O)N(C(C)(C)C)C2)nc1N(C)C (stereo not given) | 2 | 15 |
| CC1=NCCN1S(=O)(=O)c1ccc(Br)cc1 | 4 | 1 |
| COCCN1CCCC2(CCN(Cc3cccc(SC)c3)C2)C1=O (stereo not given) | 15 | 9 |
| COCC(=O)N1CCC(c2nc(CC3CCN(C)CC3)no2)CC1 | 10 | 7 |
| Cc1cc(Cl)cc2c(N=Nc3ccccc3C(=O)O)c(O)[nH]c12 | -2 | -4 |
| O=C(NNC(=O)c1ccc2c(c1)S(=O)(=O)c1ccccc1C2=O)c1ccc(F)cc1 | -7 | -9 |
| COc1ccc(NC(=O)CSc2nnc(CNC(=O)c3ccco3)n2-c2ccc(F)cc2)cc1 | 7 | 4 |
| O=C(Cn1nc(-c2ccc([N+](=O)[O-])cc2)nc1-c1ccccc1)Nc1ccccc1 | -3 | -5 |
| CC(C)(C)C(=O)Nc1cnn(Cc2ncc(-c3cccs3)o2)c1 | 12 | 8 |
| O=C(Nc1ccc(Nc2ccc(-n3cccn3)nn2)cc1)C1CCCO1 (stereo not given) | -4 | -11 |
| C/C=C(\C)CN(C)CCN(CC)CC | -8 | -17 |
| COc1cccc(C2c3cccn3CCCN2Cc2ccc(O)cc2O)c1 (stereo not given) | 5 | 5 |
| N#Cc1ccc(NC2=NCCC2)cc1 | 1 | 0 |
| O=C(Cc1ccccc1)N(Cc1csc(COc2ccc(Cl)cc2)n1)C1CC1 | -1 | 13 |
| Cc1nc(=S)c2c([nH]1)-c1ccccc1CC21CCCCC1 | 7 | 3 |

New compounds follow:
| SMILES | NPYLR7 ag | NPYLR7 ag max-min |
| --- | --- | --- |
| CC(C)C(=O)N(C)Cc1ccc(C(=O)N2CCc3[nH]ncc3C2)cc1 | 8 | 6 |
| CCOc1cn(C)c(C(=O)Nc2ccc(Oc3ccccc3)cc2)cc1=O | 13 | 10 |
| Fc1cc(Br)ccc1-n1ncnc1-c1ccc2c(c1)OCO2 | 14 | 12 |
| COc1ccc(S(=O)(=O)N(C)CCc2ccccc2)cc1N1CCN(S(=O)(=O)c2cc(Cl)cc(Cl)c2)CC1 | 30 | 18 |
| O=C1CN(C(=O)c2ccc(F)cc2)CC(O)CN1CCOc1ccccc1 (stereo not given) | 19 | 28 |
| CCOc1ccc(N2C(=O)CSC2c2cccc(NC(=O)c3cccc(OC)c3)c2)cc1 (stereo not given) | 6 | 18 |
| COc1ccc(-c2nnc3ccc(SCC(=O)Nc4ccc(C(C)=O)cc4)nn23)cc1 | 14 | 13 |
| CCCc1cc(=O)n(CC(=O)N2CCCCCC2)c(-n2nc(C)cc2C)n1 | -5 | -1 |
| CCN(CCCNC(=O)c1ccc(Cn2c(=O)[nH]c3ccccc3c2=O)cc1)c1ccccc1 | -9 | -10 |
| O=C(/C=C/c1cccs1)N(CCCN1CCOCC1)c1nc2c(F)cccc2s1 | -4 | -10 |
| CCn1cnnc1SCC(=O)Nc1ccc(CN2CCOCC2)cc1 | -2 | 3 |
| CCCc1nnc2c(C(=O)N[C@H](CO)Cc3ccccc3)cccn12 | -7 | -14 |
| O=C(CSc1ccccn1)N(Cc1ccco1)C1CCS(=O)(=O)C1 (stereo not given) | 9 | 3 |
| CCOC(=O)c1nn(-c2ccc(F)cc2)c(=O)cc1OS(=O)(=O)N(C)C | -3 | 3 |
| C#CCn1c(=NC(=O)C2CCCN2S(=O)(=O)c2cccs2)sc2c(OC)ccc(OC)c21 (stereo not given) | -4 | -5 |
| Cc1nn(CO)c(C)c1Sc1ccc(Br)cc1 | 5 | 4 |

In the list so far, six have a furan ring, fused or not:
| SMILES | NPYLR7 ag | NPYLR7 ag max-min |
| --- | --- | --- |
| Cc1cccc(CN(CCN2CCOCC2)Cc2ccc(C(O)(c3cccc(F)c3)c3cccc(F)c3)o2)c1 | 4 | 1 |
| C/C(=C\c1ccco1)CN1CCCC1c1c(C)noc1C (stereo not given) | 6 | 5 |
| O=C(NCCCn1nc(-c2ccco2)ccc1=O)c1ccc(-c2ccccc2)cc1 | -2 | -3 |
| O=C(O)c1ccc(N2C(=O)/C(=C/c3ccc(-c4ccc(Br)cc4)o3)C=C2c2ccccc2)cc1 | 2 | 8 |
| COc1ccc(NC(=O)CSc2nnc(CNC(=O)c3ccco3)n2-c2ccc(F)cc2)cc1 | 7 | 4 |
| O=C(CSc1ccccn1)N(Cc1ccco1)C1CCS(=O)(=O)C1 (stereo not given) | 9 | 3 |

Not all compounds are listed. The share of hits here may be higher or lower than overall.
